Resorufin autofl: resorufin region autofluorescence | max dye-equivalent concentration, M | Compound fluorescence, resorufin region 547/598 nm, buffer; stronger effect = higher value | 0.04% of 59,000 active; active = above 10 nM dye equivalent; inconclusive = 1 to 10 nM; inactive = 1 nM or less; a few of its hits are not listed in these tables; note: highest value over a series up to 38 µM
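Intrinsic fluorescence profiled in the resorufin window (ex 547 nm, em 598 nm) after 15 min at room temperature in pH 8.0 Tris buffer (100 mM); responses normalized against a six-point resorufin standard series as dye-equivalent concentration.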
TSHR ag: TSH receptor (human) agonism. P16473. HEK293-CNG-TSHR cells (CNG channel as cAMP sensor), membrane potential dye, cAMP. Potency, µM (highest dose often 57.1 µM), without a hit: at the top dose activation, hits mostly activators. 0.48% of 73,000 active. AID 926; active = well fitted activation curve of enough size with the parental cells flat; inconclusive = any curve in the parental cells; inactive = parental cells flat and receptor cells flat or falling; note: potency is the fitted concentration of half-maximal effect; % of control where 0% means no effect; weak receptor curves with flat parental cells got no call and are not listed
Target sequence (P16473 whole entry, looked up): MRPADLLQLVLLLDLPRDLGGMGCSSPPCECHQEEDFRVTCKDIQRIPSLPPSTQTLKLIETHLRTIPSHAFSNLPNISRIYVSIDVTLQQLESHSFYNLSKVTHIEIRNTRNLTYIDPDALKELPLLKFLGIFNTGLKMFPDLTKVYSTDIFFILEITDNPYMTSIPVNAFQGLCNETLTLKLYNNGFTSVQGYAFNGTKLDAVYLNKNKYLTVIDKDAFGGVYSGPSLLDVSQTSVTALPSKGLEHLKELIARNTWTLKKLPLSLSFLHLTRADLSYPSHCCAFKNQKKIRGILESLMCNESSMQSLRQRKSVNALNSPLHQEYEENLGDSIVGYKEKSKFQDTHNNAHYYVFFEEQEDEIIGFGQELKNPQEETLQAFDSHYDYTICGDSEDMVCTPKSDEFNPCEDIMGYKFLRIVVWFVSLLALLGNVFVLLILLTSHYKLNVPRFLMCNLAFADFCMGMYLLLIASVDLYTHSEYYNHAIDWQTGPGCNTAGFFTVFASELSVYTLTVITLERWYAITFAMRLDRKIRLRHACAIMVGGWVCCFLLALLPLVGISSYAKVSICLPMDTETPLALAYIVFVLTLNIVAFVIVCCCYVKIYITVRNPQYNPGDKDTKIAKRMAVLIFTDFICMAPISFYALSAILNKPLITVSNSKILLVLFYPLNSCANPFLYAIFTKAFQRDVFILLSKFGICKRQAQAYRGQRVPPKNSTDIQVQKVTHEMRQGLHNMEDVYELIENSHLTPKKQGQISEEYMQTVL
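HEK 293 cells stably expressing TSHR and a cAMP-gated CNG channel; parental CNG-only cells as counterscreen. Cells preloaded 60 min with membrane potential dye plus 100 uM RO 20-1724, then compound 30 min; fluorescence read at 590 nm.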
A647 autofl: A647 region autofluorescence | Compound fluorescence, A647 channel (570/671 nm), Tris buffer | max dye-equivalent concentration, M | 59,000 tested, under 10 active; active means above 1 µM dye equivalent; inconclusive means 0.1 to 1 µM; inactive means 0.1 µM or less;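 note: values scaled relative to a standard on each plate; highest value over a series up to 38 µM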
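Spectral profiling of library compounds in pH 8.0 Tris: 15 min room-temperature incubation, single ex/em pair (570/671 nm), response normalized to Alexa 647 equivalents.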
A488 fluor: compound autofluorescence in A488 spectral region; compound autofluorescence, A488 spectral region, dye equivalency; stronger effect = higher value; max dye equivalency, M; 0.1% of 59,000 active; AID 591; active = above 10 nM dye equivalent; inconclusive = 1 to 10 nM; inactive = 1 nM or less; about half of its hits are not listed in these tables;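 note: highest value over a series up to 38 µM; compound alone in buffer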
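Compound autofluorescence was read in 100 mM Tris pH 8.0 after 15 min at room temperature, ex 480 nm/em 540 nm. Intensities were converted to A488 dye-equivalent concentration using an on-plate six-point A488 standard curve.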
AID923: qHTS Assay for Allosteric/Competitive Inhibitors of Caspase-1: Spectroscopic Profiling in AFC Spectral Region; compound fluorescence, AFC spectral region (405/520 nm); almost no hit is shown here; Potency, µM (series often up to 57.5 µM), for the others: at the highest dose fluorescence increase, usual class: activators; 1.1% of 75,000 active; AID 923, 2007; active = well fitted activation curve with a large enough effect; inconclusive = small, poorly fitted or top-dose-only effect;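 note: potency is the fitted concentration of half-maximal effect; 0% is about no effect; scaled to a free AFC standard on each plate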
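Compound autofluorescence profiled at 405 nm ex/520 nm em during kinetic caspase 1 run (50 nM enzyme, 5 uM Ac-WEHD-AFC, HEPES pH 7.5, 10 mM DTT). Titration up to 57 uM; baseline from regression intercept, normalized to AFC standard curve.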
Numbers without * were called inactive; [ ] = another dose, or the depositor's remark. The list is partial; the hit share may differ from the screen's.

O=C(Cn1cc2c(n1)CCCCC2)NCc1ccccn1 was read as TSHR ag 3% and AID923 7.3%.
Screening CCCCCn1c(=O)[nH]c2cc(C(=O)NCCN(CC)CC)ccc2c1=O returned Resorufin autofl inactive, TSHR ag 0%, A647 autofl 1.6e-08, A488 fluor inactive and AID923 1.2%.
`CC(C)NC[C@@H](O)COc1ccccc1-n1cccc1` gave TSHR ag 15% and AID923 -3.8%.
Screening Cc1cccc(C(=O)N2CCC(n3nnc4cc(F)ccc43)CC2)c1 returned Resorufin autofl inactive, TSHR ag 2%, A647 autofl 5e-08, A488 fluor inactive and AID923 0.7%.
Screening O=C(C1CCN(S(=O)(=O)c2cccc3cccnc23)CC1)N1CCCC1 returned TSHR ag -5% and AID923 -1.5%.
For CCOc1ccc(NC2=NCC(=O)N2CCc2ccccc2)cc1 the results were Resorufin autofl inactive, TSHR ag -1%, A647 autofl 2e-08, A488 fluor inactive and AID923 -1.4%.
Screening Cc1c(C(=O)OCC(=O)N(CCC#N)c2ccccc2)oc2c1ccc1ccccc12 returned Resorufin autofl inactive, TSHR ag 17%, A647 autofl 2.6e-08, A488 fluor inactive and AID923 -1.2%.
For CCOC(=O)/C=C1\SCC(=O)N1CC(=O)c1ccc[nH]1 the results were Resorufin autofl inactive, TSHR ag 12%, A647 autofl 4.5e-08, A488 fluor inactive and AID923 -0.8%.
Screening Cc1cc(OCC(=O)Nc2cc(-c3nn4c(C)nnc4s3)ccc2C)ccc1Cl returned TSHR ag 3% and AID923 1.6%.
Screening Cc1ccc(CNC(=O)C(C)OC(=O)c2ccco2)cc1 (configuration not stated) returned Resorufin autofl inactive, TSHR ag 0%, A647 autofl 2.6e-09, A488 fluor inactive and AID923 0.1%.
`COc1ccc(-c2noc(CCCC(=O)NCc3ccco3)n2)cc1OC` gave Resorufin autofl inactive, TSHR ag 0%, A647 autofl 1e-09, A488 fluor inactive and AID923 0.5%.
Screening C[C@@H](c1ccccc1)N1C(=O)[C@H]2[C@H]3[C@H](O)[C@H](O)C/C(=N/OCc4ccccc4)[C@@H]3CC[C@@H]2C1=O returned TSHR ag -19%[11.4 µM] and AID923 -2.2%[11.5 µM].
For O=C1CCCN1CCCNc1ncnc2c1cnn2-c1ccc(Cl)cc1 the results were TSHR ag -18% and AID923 1.7%.
`CCOc1ccc(C(=O)c2ccncc2)cc1` gave Resorufin autofl inactive, TSHR ag -7%, A647 autofl 1.9e-08, A488 fluor inactive and AID923 5.3%.
For CCC(=O)Nc1cccc(NC(=O)CSc2nnnn2C2CCCC2)c1 the results were Resorufin autofl inactive, TSHR ag 3%, A647 autofl 4.1e-08, A488 fluor inactive and AID923 -1.0%.
CCOC(=O)C1=C(C)NC(=O)N[C@@H]1c1coc2cc(C)cc(C)c2c1=O was read as Resorufin autofl inactive, TSHR ag 2%[11.4 µM], A647 autofl 1.9e-08, A488 fluor inactive and AID923 0.6%[11.5 µM].
`Cc1csc(/C(C#N)=N/O)n1` gave Resorufin autofl inactive, TSHR ag 1%, A647 autofl 1e-09, A488 fluor inactive and AID923 -0.8%.
COC(=O)[C@@H]1C[C@H]1[C@@H](NC(=O)c1cc(C)on1)c1ccccc1 was read as TSHR ag 7% and AID923 -0.4%.
Screening CCCc1cc(=O)oc2cc(C)cc(OCC(=O)O)c12 returned Resorufin autofl inactive, TSHR ag 5%, A647 autofl 1e-09, A488 fluor inactive and AID923 0.1%.
`COc1ccc(C2C(C#N)=C(N)Oc3n[nH]c(-c4ccccn4)c32)c(OC)c1OC` (configuration not stated) gave Resorufin autofl inactive, TSHR ag 8%, A647 autofl 1.4e-09, A488 fluor inactive and AID923 -0.6%.
`CC(/C=N/n1cnnc1)=C\c1ccco1` gave Resorufin autofl inactive, TSHR ag -7%, A647 autofl 4e-09, A488 fluor inactive and AID923 5.8%.
For COc1ccc(-n2nnnc2S(=O)(=O)CC(=O)N2CCCCC2)cc1 the results were TSHR ag -10% and AID923 -2.9%.
For O=C(CSc1ncccc1-c1nc2ccccc2[nH]1)NCc1ccco1 the results were Resorufin autofl inactive, TSHR ag -1%, A647 autofl 7.8e-09, A488 fluor inactive and AID923 4.9%.
Screening Cc1ccc(OCCCC(=O)N2CCOCC2)c(C)c1 returned Resorufin autofl inactive, TSHR ag -15%, A647 autofl 4.1e-09, A488 fluor inactive and AID923 0.4%.
`COc1ccc(C2(C(=O)Nc3ccc(C(=O)O)cc3)CCOCC2)cc1` gave Resorufin autofl inactive, TSHR ag 1%, A647 autofl 3.6e-08, A488 fluor inactive and AID923 1.6%.
Screening Cc1noc(C)c1-c1cc(NCCN2CCOCC2)ncn1 returned Resorufin autofl inactive, TSHR ag 3%, A647 autofl 2.2e-08, A488 fluor inactive and AID923 0.8%.
Screening O=C(NCc1ccccc1)C1CCCN1S(=O)(=O)c1cccc2cccnc12 (configuration not stated) returned TSHR ag 14% and AID923 0.6%.
For CCOC(=O)CN1C2=NCCN2c2ccccc21 the results were Resorufin autofl inactive, TSHR ag 4%, A647 autofl 1e-09, A488 fluor inactive and AID923 0.5%.
Screening CN(C)c1ccc(P(=O)(OCc2ccccc2)C(O)c2ccncc2)cc1 (configuration not stated) returned Resorufin autofl inactive, TSHR ag 4%, A647 autofl 3.2e-08, A488 fluor inactive and AID923 -1.3%.
`Cc1[nH]c(=O)[nH]c(=O)c1CSc1nnc([C@@H](NC(=O)OC(C)(C)C)C(C)C)o1` gave Resorufin autofl inactive, TSHR ag 3%, A647 autofl 1e-09, A488 fluor inactive and AID923 0.5%.
O=S1(=O)N=C(Oc2ccccc2)c2ccccc21 was read as TSHR ag 0% and AID923 0.1%.
Screening O=c1nc2c(-c3ccccc3F)n[nH]n2c2ccccc12 returned Resorufin autofl inactive, TSHR ag 24%, A647 autofl 2.1e-08, A488 fluor inactive and AID923 3.3%.
`COc1ccccc1C(=O)Nc1c2c(nn1-c1cccc(C)c1C)CS(=O)C2` (configuration not stated) gave Resorufin autofl inactive, TSHR ag inconclusive, A647 autofl 1.9e-08, A488 fluor inactive and AID923 2.7%.
For O=C(CSC1=NCCS1)NC1CCCCC1 the results were Resorufin autofl inactive, TSHR ag 0%, A647 autofl 3.4e-08, A488 fluor inactive and AID923 -0.2%.
`CCOC(=O)CCc1c(C)c2ccc(OC(C)C(=O)OCC)c(C)c2oc1=O` (configuration not stated) gave Resorufin autofl inactive, TSHR ag inconclusive, A647 autofl 1e-09, A488 fluor inactive and AID923 0.3%.
`O=C(Nc1cnccn1)c1ccncc1` gave Resorufin autofl inactive, TSHR ag 21%, A647 autofl 2.7e-08, A488 fluor inactive and AID923 0.7%.
For COC(=O)N1CCC2(CCCN(c3ccc(-c4ccccc4)cc3)C2)CC1 the results were Resorufin autofl inactive, TSHR ag 16%, A647 autofl 3.7e-09, A488 fluor inactive and AID923 3.4%.
For NC(N)=NCCCC(=O)O the results were Resorufin autofl inactive, TSHR ag 2%[11.4 µM], A647 autofl 3.2e-09, A488 fluor inactive and AID923 0.2%[11.5 µM].
For CSc1ccccc1-n1nnnc1SCc1ccccc1 the results were Resorufin autofl inactive, TSHR ag inconclusive, A647 autofl 3.7e-08, A488 fluor inactive and AID923 -1.2%.
Screening CC(=O)c1cccc(NC(=O)COc2ccc(S(=O)(=O)N3CCCCC3)cc2)c1 returned Resorufin autofl inactive, TSHR ag -10%, A647 autofl 1e-09, A488 fluor inactive and AID923 1.6%.
For CCN1CCN(C(c2cccs2)C(C)NC(=O)c2ccccc2F)CC1 (configuration not stated) the results were Resorufin autofl inactive, TSHR ag -8%, A647 autofl 2.3e-08, A488 fluor inactive and AID923 -1.4%.
Clc1cccc(-c2nc3nc4ccccc4nc3n2Cc2ccco2)c1 was read as Resorufin autofl inactive, TSHR ag inconclusive, A647 autofl 2.4e-09, A488 fluor inactive and AID923 15%.
`NNC(=O)CCSc1ccccc1` gave Resorufin autofl inactive, TSHR ag -4%[11.4 µM], A647 autofl 1.8e-08, A488 fluor inactive and AID923 -0.7%[11.5 µM].
Screening CCCCCOC(=O)C1C2C=CC3(CN(c4ccccc4C)C(=O)C13)O2 (configuration not stated) returned Resorufin autofl inactive, TSHR ag 2%, A647 autofl 6.4e-09, A488 fluor inactive and AID923 1.9%.
Screening Cc1ccc(-n2nc(C)c3c2OC(N)=C(C#N)C3c2cccs2)cc1 (configuration not stated) returned Resorufin autofl inactive, TSHR ag 1%, A647 autofl 5.7e-09, A488 fluor inactive and AID923 2.0%.
`CC(=O)CCc1ccc(OCCCCn2cncn2)cc1` gave Resorufin autofl inactive, TSHR ag 2%, A647 autofl 2.3e-08, A488 fluor inactive and AID923 -1.6%.
For Cn1cc(/C=N/n2cnc3sc4c(c3c2=O)CCCC4)c2ccccc21 the results were Resorufin autofl inactive, TSHR ag 17%, A647 autofl 5e-09, A488 fluor inactive and AID923 0.9%.
`CC(C)=NOC[C@@H](C)[C@H](OCc1ccccc1)C(C)C` gave TSHR ag -7%[11.4 µM] and AID923 -0.7%[11.5 µM].
COC(=O)CCC(=O)Nc1cccc(Br)c1 was read as Resorufin autofl inactive, TSHR ag -4%, A647 autofl 6.1e-09, A488 fluor inactive and AID923 -1.7%.
`N#Cc1c(/N=C/N2CCCC2)oc(-c2ccccc2)c1-c1ccccc1` gave TSHR ag inconclusive and AID923 1.1%.

Six records picked at random from the list so far, as already listed:
COC(=O)[C@@H]1C[C@H]1[C@@H](NC(=O)c1cc(C)on1)c1ccccc1 was read as TSHR ag 7% and AID923 -0.4%.
`O=C(Nc1cnccn1)c1ccncc1` gave Resorufin autofl inactive, TSHR ag 21%, A647 autofl 2.7e-08, A488 fluor inactive and AID923 0.7%.
`CC(/C=N/n1cnnc1)=C\c1ccco1` gave Resorufin autofl inactive, TSHR ag -7%, A647 autofl 4e-09, A488 fluor inactive and AID923 5.8%.
For CCOC(=O)/C=C1\SCC(=O)N1CC(=O)c1ccc[nH]1 the results were Resorufin autofl inactive, TSHR ag 12%, A647 autofl 4.5e-08, A488 fluor inactive and AID923 -0.8%.
Screening Cc1ccc(CNC(=O)C(C)OC(=O)c2ccco2)cc1 (configuration not stated) returned Resorufin autofl inactive, TSHR ag 0%, A647 autofl 2.6e-09, A488 fluor inactive and AID923 0.1%.
Screening Cc1cccc(C(=O)N2CCC(n3nnc4cc(F)ccc43)CC2)c1 returned Resorufin autofl inactive, TSHR ag 2%, A647 autofl 5e-08, A488 fluor inactive and AID923 0.7%.

Further compounds.
Screening N#Cc1cccc(NC(=O)N2CC[C@@]3(CCCN(C(=O)c4cc(C(F)(F)F)cc(C(F)(F)F)c4)C3)C2)c1 returned Resorufin autofl inactive, TSHR ag 10%, A647 autofl 2.8e-08, A488 fluor inactive and AID923 1.2%.
Screening N#Cc1sc2nc3c(c(-c4cccnc4)c2c1N)CCC3 returned Resorufin autofl inactive, TSHR ag 26%, A647 autofl 4.5e-08, A488 fluor inactive and AID923 2.4%.
For COc1cc(C(=O)NC2CCN(Cc3nnnn3Cc3cccs3)CC2)cc(OC)c1OC the results were Resorufin autofl inactive, TSHR ag -1%, A647 autofl 1.9e-08, A488 fluor inactive and AID923 -1.5%.
Screening COc1ccc(CCN2CC(O)=C(c3nc4ccccc4c(=O)[nH]3)C2=N)cc1OC returned Resorufin autofl inactive, TSHR ag 13%, A647 autofl 5e-09, A488 fluor inactive and AID923 0.3%.
For O=C1CC(N2CCN(Cc3ccc4c(c3)OCO4)CC2)C(=O)N1Cc1ccc(N2CCCC2=O)cc1 (configuration not stated) the results were TSHR ag 3% and AID923 0.4%.
For CCS(=O)(=O)N1CCCC(C(=O)NCCCN2CCCC2=O)C1 (configuration not stated) the results were Resorufin autofl inactive, TSHR ag 1%, A647 autofl 1.7e-08, A488 fluor inactive and AID923 0.3%.

Assay outcomes: PubChem BioAssay, National Center for Advancing Translational Sciences (NCATS)
